Screening results as filed in PubChem BioAssay.
gsp antagonist: qHTS for Antagonists of gsp, the Etiologic Mutation Responsible for Fibrous Dysplasia/McCune-Albright Syndrome: qHTS | gsp-mutant cells, cAMP HTRF, 30 min; control for the full effect not named in the record | Potency, µM (doses to about 76.9 µM), for inactives: at the top dose activity change, negative = inhibition, usual class: inhibitors | actives 0.4% (n = 340,000) | AID 624288, 2012; active = falling curve of any shape with a large fitted effect; inconclusive = falling curve, mostly with a smaller effect; inactive = flat or rising curve; cell line not stated here;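 further: intracellular cAMP measured with PDE inhibitor Ro 20-1724 present during compound exposure; potency means the concentration at half of the fitted maximal effect; on the % scale 0 is the no-effect control and ±100 the full control effect; nearly all actives have a fitted effect of over 65% in size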
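HTRF cAMP measurement after 30 min RT detection following 30 min, 37C compound treatment alongside […] (added as 300 uM solution) in G418-selected cells seeded at 2000/well and grown 16–24 h.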
D2 potentiator: Beta-Arrestin HTS for Positive Allosteric Modulators of the Human D2 Dopamine Receptor: Potentiators. D(2) dopamine receptor (Homo sapiens), P14416. DiscoveRx D2 beta-arrestin cells, luminescence, 90 min; 100% = 57 uM dopamine signal. potentiation, % (test concentration not listed). actives 0.23% (n = 360,000). AID 624464, 2012; active = potentiation of 50% or more; inconclusive = 30% to 50%; inactive = 30% or less;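 further: compound concentration not given in the record; tested on top of an EC20 dose of dopamine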
Target sequence (P14416 whole entry, looked up): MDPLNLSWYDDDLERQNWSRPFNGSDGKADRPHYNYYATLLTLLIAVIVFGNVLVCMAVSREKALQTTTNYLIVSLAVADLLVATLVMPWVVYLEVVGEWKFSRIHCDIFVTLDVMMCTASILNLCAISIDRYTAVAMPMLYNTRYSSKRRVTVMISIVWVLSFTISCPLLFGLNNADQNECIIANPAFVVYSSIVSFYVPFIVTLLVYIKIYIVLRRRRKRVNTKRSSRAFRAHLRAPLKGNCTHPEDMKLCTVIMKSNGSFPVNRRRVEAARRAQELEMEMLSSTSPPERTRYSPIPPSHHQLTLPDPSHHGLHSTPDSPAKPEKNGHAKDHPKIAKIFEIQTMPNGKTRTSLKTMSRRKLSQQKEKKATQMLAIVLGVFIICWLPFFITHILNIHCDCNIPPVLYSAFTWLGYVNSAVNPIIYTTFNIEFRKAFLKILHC
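PathHunter beta-arrestin assay in DiscoveRx D2 cells. Compounds were added with an EC20 of dopamine (50 nM final) for 90 min at 37 deg C. Luminescence was read 1 h after detection reagent, with 57 uM dopamine as the EC100 control.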
CtBP-E1A blk: qHTS Assay for Inhibitors of the CtBP/E1A Interaction. CtBP / adenovirus E1A interaction (AlphaScreen). AlphaScreen GST-E1A/His-CtBP binding, 1536-well; hits give low values; control for the full effect not named in the record. activity change, % (no concentration beside the values). actives 0.49% (n = 340,000). AID 651724, 2012; in the data active means activity change below about -65%; inconclusive means about -30% to -65%; inactive means above about -30%; further: on the % scale 0 is the no-effect control and ±100 the full control effect; compound concentration not given in the record
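In 5 uL wells, 23 nL compound meets equimolar GST-E1A and His-CtBP (5X stock 125 nM each) for 2 h, 37 °C. Beads (5X, 50 ug/mL) then 1 h, 37 °C, dark.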
D2 agonist: Beta-Arrestin HTS for Positive Allosteric Modulators of the Human D2 Dopamine Receptor: Agonists | DiscoveRx PathHunter D2 beta-arrestin, luminescence, 90 min; 100% = 57 uM dopamine signal | activation, % (concentration not given with the values) | actives 0.084% (n = 360,000) | AID 624465, 2012; in the data active = activation above about 40%; inconclusive = about 15% to 40%; inactive = below about 15%; further: compound concentration not given in the record; the text of the record calls up to 30% inactive
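Agonist mode: compounds alone added to overnight-plated D2 PathHunter cells for 90 min at 37 C, with 57 uM final dopamine (EC100) defining full response. Beta-arrestin recruitment detected by chemiluminescent reagent, read after 1 h at ambient temperature.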
gsp agonist: qHTS for Agonist of gsp, the Etiologic Mutation Responsible for Fibrous Dysplasia/McCune-Albright Syndrome: qHTS. Potency, µM (doses to about 76.9 µM), without a hit: at the highest dose activation (cAMP increase), usual class: activators. AID 624287, 2012. gsp mutant cells, cAMP HTRF, 30 min; control for the full effect not named in the record. actives 0.13% (n = 340,000); active = well fitted activation curve with a large enough effect; inconclusive = small, poorly fitted or top-dose-only effect, or another doubt; inactive = no such curve, though single readings can be large or run the other way; cell line not stated here;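 further: phosphodiesterase inhibitor Ro 20-1724 added with compounds to block cAMP breakdown; potency means the concentration at half of the fitted maximal effect; nearly all actives have a fitted effect of over 60% in size; about a fifth of the inactives were tested at one dose only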
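Cells stably selected in G418 were plated at 2000/well, grown 16-24 hr, then given compounds in DMSO with the PDE inhibitor […] (300 uM solution added) for 30 min at 37C; cAMP was read by HTRF.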
Six1-Eya2 blk: qHTS Assay for Inhibitors of the Six1/Eya2 Interaction; Homeobox protein SIX1 (Homo sapiens) + Protein phosphatase EYA2 (Homo sapiens), …; AlphaScreen GST-Six1/His-Eya2 binding, biochemical; hits give low values; control for the full effect not named in the record; activity change, % (no concentration beside the values); actives 0.56% (n = 360,000); in the data active = activity change below about -65%; inconclusive = about -30% to -65%; inactive = above about -30%; further: on the % scale 0 is the no-effect control and ±100 the full control effect; compound concentration not given in the record
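Six1/Eya2 binding was read as AlphaScreen signal after compounds were pinned into GST-Six1 plus His-tagged Eya2 (5X stock 250/500 nM) in pH 8.0 Tris/NaCl/TCEP buffer, beads added, then incubated 1 h, 37 C, dark.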
The depositor's hits bear a star; ? = inconclusive; nt = no result given; & = joins results of further samples; [ ] = dose if it differs, or a comment.

The first 7 records, ahead of the listing:
item | Structure | gsp antagonist | D2 potentiator | CtBP-E1A blk | D2 agonist | gsp agonist | Six1-Eya2 blk
1 | COc1ccc(/C=C/C(=O)Oc2cc(C)[nH]c(=O)c2[N+](=O)[O-])cc1OC | -1% | -5 | -10 | -2.6 | -11%[15.4 µM] | 3
2 | Cc1cccc(N(C(=O)Cc2cccs2)C(C(=O)NCc2ccco2)c2ccncc2)c1 (configuration not stated) | -1% | -7 | -23 | -0.8 | -7% | 3
3 | Cc1ccc(C(=O)NC(C(=O)OCc2cn3cc(Cl)ccc3n2)C(C)C)cc1 (configuration not stated) | -14% | 4 | 2 | 4.8 | -25% | 3
4 | NS(=O)(=O)c1cccc(NC(=O)CCc2ccc(S(=O)(=O)N3CCOCC3)cc2)c1 | 14% | -15 | 7 | -4.9 | 52%[15.4 µM] | -1
5 | COc1ccc(N2CCN(S(=O)(=O)CCNC(=O)C34CC5CC(CC(C5)C3)C4)CC2)cc1 | -14% | -5 | -8 | -1.4 | 25% | -9
6 | COc1cccc(NC(=O)Cc2ccccc2)c1 | -4% | -3 | 3 | -0.7 | nt | 10
7 | NC(=O)C1CCN(CCC(=O)Nc2ccc3c(c2)CCC3)CC1 | 17% | -10 | -8 | -3.2 | -7% | -8

This part in full, repeating the preview:
item | Structure | gsp antagonist | D2 potentiator | CtBP-E1A blk | D2 agonist | gsp agonist | Six1-Eya2 blk
1 | COc1ccc(/C=C/C(=O)Oc2cc(C)[nH]c(=O)c2[N+](=O)[O-])cc1OC | -1% | -5 | -10 | -2.6 | -11%[15.4 µM] | 3
2 | Cc1cccc(N(C(=O)Cc2cccs2)C(C(=O)NCc2ccco2)c2ccncc2)c1 (configuration not stated) | -1% | -7 | -23 | -0.8 | -7% | 3
3 | Cc1ccc(C(=O)NC(C(=O)OCc2cn3cc(Cl)ccc3n2)C(C)C)cc1 (configuration not stated) | -14% | 4 | 2 | 4.8 | -25% | 3
4 | NS(=O)(=O)c1cccc(NC(=O)CCc2ccc(S(=O)(=O)N3CCOCC3)cc2)c1 | 14% | -15 | 7 | -4.9 | 52%[15.4 µM] | -1
5 | COc1ccc(N2CCN(S(=O)(=O)CCNC(=O)C34CC5CC(CC(C5)C3)C4)CC2)cc1 | -14% | -5 | -8 | -1.4 | 25% | -9
6 | COc1cccc(NC(=O)Cc2ccccc2)c1 | -4% | -3 | 3 | -0.7 | nt | 10
7 | NC(=O)C1CCN(CCC(=O)Nc2ccc3c(c2)CCC3)CC1 | 17% | -10 | -8 | -3.2 | -7% | -8
8 | CCc1cccc2c(C(=O)COC(=O)c3c(C)noc3C)c[nH]c12 | -6% | -10 | 3 | 2.2 | -13% | -1
9 | COc1ccc(S(=O)(=O)CC(=O)c2cc3cc(Br)ccc3oc2=O)cc1 | -20% | -5 | nt | 4.7 | 5% | -11
10 | CCOc1ccc2nc(N(CCN(CC)CC)C(=O)c3ccc([N+](=O)[O-])cc3)sc2c1 | 7% | -11 | -2 | -2.5 | -10% | 11
11 | CCN1C[C@@H]2[C@@H]3C(=O)N(C)C(=O)[C@@H]3[C@](CC)(C1=O)N2C(=O)c1ccccc1 | 6% | 1 | 6 | 1.1 | -25% | 1
12 | O=C(CCCCl)OCc1cn(-c2ccc(Cl)cc2)nn1 | 3% | -3 | 4 | -2.0 | 1%[15.4 µM] | 1
13 | Cc1nnc(SCC(=O)N(C)C2CCS(=O)(=O)C2)n1Cc1ccccc1 (configuration not stated) | 14% | -1 | 4 | -4.9 | 6%[15.4 µM] | 2
14 | COc1ccccc1NC(=O)CSc1nnnn1C1CCCC1 | -2% | -3 | -21 | 0.7 | -1% | -18
15 | COC(=O)c1ccc(C(=O)N2CCCC(Nc3ccc(C(C)C)cc3)C2)cc1 (configuration not stated) | -6% | -2 | -6 | -4.2 | -1% | -9
16 | O=C(Nc1cccc(F)c1)c1ccc(S(=O)(=O)N2CCCC2)cc1 | -5% | -6 | -3 | -4.0 | 0% | -6
17 | COc1ccc(C(C(=O)NC2CCCC2)N(CC2CCCO2)C(=O)Cc2cccs2)cc1OC (configuration not stated) | 7% | -1 | -7 | -1.6 | ? | 5
18 | CN1CCN(c2ccc([N+](=O)[O-])cc2C(=O)Nc2ccccc2)CC1 | 2% | -11 | -13 | -3.2 | -9%[15.4 µM] | -1
19 | C=CCn1c(SCC#N)nc2ccccc2c1=O | 6% | -13 | -5 | -1.4 | -52%[inhibitor] | -1
20 | Cc1cc(C)cc(C(O)c2ncc(-c3ccc(F)cc3)[nH]2)c1 (configuration not stated) | nt | -8 | -11 | -5.5 | nt | -10
21 | Cc1cc(NC(=O)C2CCCCC2C(=O)O)no1 (configuration not stated) | -14% | -2 | 11 | -2.7 | 8% | 1
22 | CC(=O)N1c2ccc(S(=O)(=O)N3CCC(C(=O)Nc4cccc(Cl)c4)CC3)cc2CC1C (configuration not stated) | ? | -1 | nt | -1.5 | -6% | 29
23 | Cc1ccc(C(=O)N/N=C\c2cccc(OC(=O)c3cccc(F)c3)c2)cn1 | 15% | 5 | -2 | 2.7 | 1% | -9
24 | COc1cc(CN2CCNC(=O)C2CC(=O)N(C)Cc2ncc[nH]2)cc(OC)c1 (configuration not stated) | 9% | -2 | 2 | -2.9 | -8%[15.4 µM] | -10
25 | O=C(CN1CCN(c2cccc(Cl)c2)CC1)Nc1nccs1 | 5% | 0 | 8 | 1.3 | ? | -8
26 | COc1ccc(-c2cc(C(=O)OC(C)C(=O)Nc3c(C)n(C)n(-c4ccccc4)c3=O)c3ccccc3n2)cc1 (configuration not stated) | -15% | -4 | 6 | 0.3 | 32% | -4
27 | O=NN(Cc1cccnc1)C(=O)NC1CCCCC1 | nt | -5 | 11 | -3.1 | nt | 3
28 | COc1cc2ccccc2cc1C(=O)N1CCN(c2ccccn2)CC1 | 0% | -7 | 0 | -0.1 | 3%[15.4 µM] | -2
29 | COc1ccc(-c2cc(C(F)(F)F)nc(S(C)(=O)=O)n2)cc1OC | 23% | -20 | 9 | -3.3 | ? | 10
30 | CCN(CC)CCNC(=O)c1ccc(NC(=O)c2ccc(F)cc2)cc1 | 8% | -24 | nt | -0.9 | 0% | 7
31 | COc1ccc(CCn2c(=O)[nH]c3cc(C(=O)N4CCN(c5ccccn5)CC4)ccc3c2=O)cc1OC | 2% | -8 | 2 | 0.9 | 7%[15.4 µM] | 3
32 | Cc1ccc2c(c1)/C(=N/N1C(=O)c3ccccc3C1=O)C(=O)N2 | 4% | -19 | 4 | -6.4 | 1% | -1
33 | CC1CC(C)(C)N(C(=O)CN2C(=O)CCC2=O)c2ccccc21 (configuration not stated) | 4% | -4 | -9 | 0.1 | -2%[15.4 µM] | -6
34 | COc1nc(Nc2nc3ccccc3c(=O)[nH]2)nc2ccc(C)cc12 | -16% | 12 | -7 | -6.8 | ? | -3
35 | Cc1cc(Cl)c(S(=O)(=O)Nc2ccc(Cl)cn2)cc1OCC(N)=O | -9% | -14 | 1 | -1.4 | -22% | -3
36 | CCc1ccc(C(=O)/C=C/Nc2ccc(S(=O)(=O)Nc3cnc4ccccc4n3)cc2)cc1 | ? | 2&-12 | 3 | 6.3&-6.2 | 16%&2% | 5&4
37 | COc1cc(OC)cc(-c2c(-c3cccs3)c3cc(-c4ccc(SC)cc4)ccc3n2C)c1 | ? | -2 | 25 | 1.9 | -7% | 11
38 | CC1CN(C(=O)c2ccccc2Sc2ccccc2C#N)CC(C)O1 (configuration not stated) | 1% | -1 | 4 | -4.0 | -11% | -2
39 | O=c1[nH]c(/C=C\c2cccs2)nc(O)c1[N+](=O)[O-] | -16% | -3 | -16 | -0.9 | 4%[15.4 µM] | ?
40 | COCc1cccc(-c2csc(C(C)(O)c3ccccc3)n2)c1 (configuration not stated) | nt | -3 | -1 | -5.4 | nt | 3

One compound at a time, as listed above.
O=c1[nH]c(/C=C\c2cccs2)nc(O)c1[N+](=O)[O-] across the screens: gsp antagonist = -16%; D2 potentiator = -3; CtBP-E1A blk = -16; D2 agonist = -0.9; gsp agonist = 4%[15.4 µM]; Six1-Eya2 blk = ?
COc1ccc(CCn2c(=O)[nH]c3cc(C(=O)N4CCN(c5ccccn5)CC4)ccc3c2=O)cc1OC across the screens: gsp antagonist = 2%; D2 potentiator = -8; CtBP-E1A blk = 2; D2 agonist = 0.9; gsp agonist = 7%[15.4 µM]; Six1-Eya2 blk = 3

Next part
item | Structure | gsp antagonist | D2 potentiator | CtBP-E1A blk | D2 agonist | gsp agonist | Six1-Eya2 blk
41 | COc1ccc2[nH]c(=O)c(CN(Cc3ccco3)Cc3nnnn3Cc3ccccc3)cc2c1 | ? | 2 | -16 | -2.6 | ? | -6
42 | CC(/C=N/NC(=O)c1cc(-c2ccc3ccccc3c2)n[nH]1)=C\c1ccco1 | -4% | 0 | -16 | 5.1 | 14% | -14
43 | CCOC(=O)C1CCN(c2c(Nc3cc(C)cc(C)c3)c(=O)c2=O)CC1 | 8% | -14 | 1 | -1.4 | 12%[15.4 µM] | -2
44 | COc1cc(O)c(C(CCN2CCOCC2)c2ccc(N(C)C)cc2)c(OC)c1 (configuration not stated) | -6% | -10 | -27 | -1.1 | nt | ?
45 | O=C(CSc1nnc(-c2ccc(O)cc2)o1)NNC(=O)c1ccncc1 | 7% | 1 | 0 | -6.0 | 15%[15.4 µM] | 2
46 | CCOc1ccc(NC(=O)[C@H](Cc2ccccc2)NC(=O)C2CCNCC2)cc1 | 2% | -23 | -13 | -7.1 | -11% | 2
47 | COc1ccc(-c2cnc(C(O)c3ccc(C(C)(C)C)cc3)[nH]2)cc1 (configuration not stated) | nt | -1 | -12 | 2.1 | nt | -22
48 | O=C(CCCSc1nc2ccccc2[nH]1)NCc1ccc(Cl)cc1 | -16% | -15 | nt | -2.6 | -22% | -2
49 | COc1ccc(CN(C)C(=O)COC(=O)c2ccc(-c3ccccc3)cc2)c(OC)c1OC | -36% | -23 | 2 | 2.2 | -4% | 12
50 | COc1ccc(CN2CCN(C(=O)c3ccc4nc(N5CCOCC5)sc4c3)CC2)c(OC)c1OC | nt | -5 | -21 | -2.7 | 16%[15.4 µM] | 12
51 | Cc1cc(C)c(C#N)c(SCC(=O)N2CCN(Cc3ccccc3)CC2)n1 | 0% | -14 | -3 | 0.3 | 2% | -6
52 | CC(=O)Nc1cccc(-c2cc(NC=O)c3ncc(-c4cccc(C(C)=O)c4)n3c2)c1 | nt | 6 | -13 | 8.5 | nt | -19
